Cruzain noTriton: qHTS Assay for Promiscuous and Specific Inhibitors of Cruzain (without detergent) | Cruzipain (Trypanosoma cruzi), P25779 | purified cruzain, Z-FR-AMC fluorescence, no detergent | Potency, µM, for inactives: max response, negative = inhibition, usual class: inhibitors | actives 2.3% (n = 200,000);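 note: plate controls were enzyme without inhibitor for no effect and buffer without enzyme for full effect; nearly all actives have a fitted effect of over 40% in size; top concentration of the series not given in the record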
Target sequence (P25779 123-467 limits assumed): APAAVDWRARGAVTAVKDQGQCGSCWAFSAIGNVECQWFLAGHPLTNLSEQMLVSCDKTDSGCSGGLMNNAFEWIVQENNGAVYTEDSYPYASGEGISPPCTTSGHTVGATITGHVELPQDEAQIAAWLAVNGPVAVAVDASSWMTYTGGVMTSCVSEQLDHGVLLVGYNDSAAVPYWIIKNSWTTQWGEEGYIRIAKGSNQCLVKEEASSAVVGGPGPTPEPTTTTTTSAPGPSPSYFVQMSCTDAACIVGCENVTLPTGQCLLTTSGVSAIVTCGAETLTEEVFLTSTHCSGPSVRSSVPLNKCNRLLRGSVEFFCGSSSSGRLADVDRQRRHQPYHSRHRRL
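Detergent-free condition (0.00005% Triton X-100) in acetate buffer pH 5.5 with DTT. 1.5 nM enzyme and compound were pre-mixed 15 min, then 2 uM Z-FR-AMC substrate added; reaction progress from fluorescence change between first and third reads (60 s).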
NS1 function inh: qHTS Assay for Inhibitors of Influenza NS1 Protein Function; AID 2326, 2010; Potency, µM (series often up to 46.1 µM), for the others: at the highest dose activity, positive = more growth; S. cerevisiae slowed by influenza A NS1, growth recovery by OD600; actives 0.4% (n = 270,000); active means well fitted rising curve with a large enough effect; inconclusive means small, poorly fitted or top-dose-only effect; inactive means no such curve, though single readings can be large or run the other way; note: nearly all actives have a fitted effect of over 50% in size
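S. cerevisiae expressing influenza A NS1, grown in glucose, washed, then diluted 1:100 into pH 6.0 -URA galactose medium with 23 nl compound. Growth recovery read as OD600; NS1-free strain serves as control.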
StopGo reporter: High Throughput Screening for Foot and Mouth Disease Virus Antivirals; actives 1.2% (n = 410,000); Potency, µM (titrated, usually from 57.9 µM), for the others: top-dose signal change, negative = less light; AID 1159524, 2015; human cells with a luciferase reporter of 2A StopGo recoding; control for the full effect not named in the record; active = well fitted falling curve with a large enough effect; inconclusive = small, poorly fitted or top-dose-only effect; inactive = no such curve, though single readings can be large or run the other way; tested in HEK293T cells; note: % is set by controls: 0 for no effect and ±100 for the full control effect; nearly all actives have a fitted effect of over 45% in size; luciferase light after 4 h
Marburg entry inh: qHTS for inhibitors of binding or entry into cells for Marburg Virus. Marburg virus pseudotyped entry inhibition, cell reporter; control for the full effect not named in the record; about a third of the inactives were read at about 46 µM. actives 1.8% (n = 300,000). Potency, µM (series often up to 37.8 µM), for the others: at the top dose activity change, negative = inhibition, most hits filed as inhibitors; active = well fitted inhibition curve with a large enough effect; inconclusive = small, poorly fitted or top-dose-only effect, or effect the other way; inactive = flat fitted curve, though single readings scatter; tested in HEK293 cells; about a fifth of its hits are not listed in these tables; note: % is set by controls: 0 for no effect and ±100 for the full control effect; luciferase read-out
SARS PLpro yeast: qHTS of Yeast-based Assay for SARS-CoV PLP; S. cerevisiae expressing SARS-CoV PLpro, growth rescue; control for the full effect not named in the record; Potency, µM (highest dose often 32.9 µM), for inactives: top-dose activity, positive = growth rescue; actives 0.19% (n = 330,000); AID 485353, 2010; active means well fitted rising curve with a large enough effect; inconclusive means small, poorly fitted or top-dose-only effect; inactive means no such curve, though single readings can be large or run the other way; note: 0% is about no effect; nearly all actives have a fitted effect of over 55% in size; growth read by luminescence after 48 h
RE007 growth inh: qHTS Assay for Inhibitors of the HIV-1 protein Vpr | S. pombe RE007 Vpr strain, BacTiter-Glo ATP luminescence, 24 h; control for the full effect not named in the record | Potency, µM (highest dose often 92.2 µM), without a hit: top-dose activity change, negative = less growth | actives 0.21% (n = 360,000); active = well fitted falling curve with a large enough effect; inconclusive = small, poorly fitted or top-dose-only effect; inactive = no such curve, though single readings can be large or run the other way;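 note: % is set by controls: 0 for no effect and ±100 for the full control effect; nearly all actives have a fitted effect of over 50% in size; the assay follows cell death caused by Vpr and the record does not say whether a fall means rescue or toxicity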
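Fission yeast strain RE007, carrying one chromosomally integrated HIV-1 vpr copy, was seeded at OD 0.01 in PMG+AL medium with 23 nL pinned compound. After 24 h at 30 °C and 99% humidity, viability was read by BacTiter-Glo luminescence.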
LASV entry inh: qHTS for Inhibitors of binding or entry into cells for Lassa Virus; actives 1.2% (n = 300,000); Lassa virus pseudotype entry inhibition, cell reporter; control for the full effect not named in the record; Potency, µM (doses to about 37.9 µM), without a hit: top-dose activity change, negative = inhibition, usual class: inhibitors; active means well fitted inhibition curve with a large enough effect; inconclusive means small, poorly fitted or top-dose-only effect, or effect the other way; inactive means flat fitted curve, though single readings scatter; tested in HEK293 cells; note: % is set by controls: 0 for no effect and ±100 for the full control effect; nearly all actives have a fitted effect of over 50% in size; luciferase read-out
Cruzain Triton: qHTS Assay for Promiscuous and Specific Inhibitors of Cruzain (with detergent). purified cruzain, Z-FR-AMC fluorescence, 0.01% Triton. Potency, µM, for inactives: max response, negative = inhibition, actives largely listed as inhibitors. actives 0.43% (n = 200,000). AID 1478, 2009;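 note: plate controls were neutral wells for no effect and buffer without enzyme for full effect; nearly all actives have a fitted effect of over 40% in size; top concentration of the series not given in the record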
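Enzyme 1.5 nM, Z-FR-AMC 2 uM, NaOAc 100 mM pH 5.5, DTT 5 mM, Triton X-100 0.01%; 15 min RT compound preincubation; kinetic ex360/em450, 60 s delta.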
* marks the source's active call; other numbers are inactive results; ? = inconclusive; / = no result given; & = joins results of further samples; [ ] = another dose, or the depositor's remark. Unless noted, calls come from the whole dose curve; as a rule, active = well fitted curve in the direction sought with a large enough effect; inconclusive = small, poorly fitted or top-dose-only effect, or another doubt; inactive = no such curve, though single readings can be large; an effect the other way counts as inactive or inconclusive. Potency is the fitted concentration of half-maximal effect.

SMILES	Cruzain noTriton	NS1 function inh	StopGo reporter	Marburg entry inh	SARS PLpro yeast	RE007 growth inh	LASV entry inh	Cruzain Triton
COc1cccc(N2CCN(C(=O)c3cccnc3)CC2)c1	8%	13%	-21%	-18%	6%	?	9%	6.7%
CCOC(=O)C1(CCc2ccccc2)CCN(Cc2cnc(N(C)C)s2)CC1	/	-4%	-25%	?	0%	-12%	?	/
c1ccc2c(c1)C(=NC1CCCCC1)NC2=NC1CCCCC1	0%	-16%	16µM*	5.8µM*	6%	4%	13µM*	1.9%
Cc1ccc2cc(CN(CC3CCCO3)C(=O)NC3CCCCC3)c(=O)[nH]c2c1C (stereo not drawn)	17%	0%	-20%	2%	3%	-8%	4%	-5.5%
COc1ccc2c(c1)sc1ncc(C(=O)NCc3ccc(OC(C)C)cc3)c(=O)n12	0%	/	8%	?	/	/	/	-0.1%
COc1nc(NCCO)nc(Nc2cc(Cl)ccc2OC)n1	/	-2%	-10%	9%	0%	3%	?	/
Cc1cc(C)c(NS(=O)(=O)c2ccc(-c3coc(C)n3)cc2)c(C)c1	-12%	/	-21%	/	/	/	6%[46.1 µM]	-1.6%
NC(=O)NS(=O)(=O)Oc1ccccc1	/	11%	-2%	/	2%	-12%	/	/
O=C(O)c1ccccc1C(=O)O	0%	/	0%	/	?	8%	/	5.2%
Cc1cc(C)c2c(=O)n(-c3ccccc3)[nH]c2n1	-5%	-4%	36%[activator]	17%	-1%	1%	24%	-1.0%
CC(=O)N1CCc2c(sc3c2c(=O)n(-c2ccccc2)c(=O)n3CC(=O)Nc2ccccc2C)C1	-13%	/	8%	-5%[46.1 µM]	/	/	/	1.8%
CC1CCc2cc(F)ccc2N1C(=O)CN1C(=O)c2ccccc2C1=O (stereo not drawn)	-3%	1%[9.22 µM]	6%	16%	-4%	13%	-3%	-1.6%
CCOc1ccc(C(=O)N2CCC(c3nc(-c4ccc(S(=O)(=O)N5CCCC5)cc4)no3)CC2)cc1	2%	/	-23%	?	/	/	?	-1.0%
CC(=O)OC1CCC2C3CCc4cc(O)ccc4C3CCC12C (stereo not drawn)	?	/	-24%	/	/	-5%	/	-11%
Cc1ccc(OCC(=O)N/N=C\c2c(C)n(C)c3ccccc23)c([N+](=O)[O-])c1	?	7%	0%	10µM*	3%	-2%	-18%	-0.5%
CC(C)(C)c1cc(CNC2CS(=O)(=O)C[C@@H]2O)cc(C(C)(C)C)c1O (stereo partly drawn)	1%	-13%	-1%	-25%[46.1 µM]	-16%	-17%	-8%	2.0%
CCOc1ccc(CN(C)CC(=O)Nc2cccc(S(=O)(=O)N(C)c3ccccc3)c2)cc1	/	/	-26%	?	-2%	2%	?	/
C/C(=N/NC(=O)c1sc(NS(=O)(=O)c2ccc(C)cc2)nc1C)c1sc(N)nc1C	/	/	0%	28%[46.1 µM]	-1%	0%	5%	/
O=C(c1ccccc1)c1ccc2c(c1)OCCOCCOCCO2	/	-3%	11%	/	-1%	6%	/	/
O=C(Nc1cccc(F)c1)c1ccc(-c2ccccc2)s1	?	/	37%[activator]	?	/	/	16%[46.1 µM]	-4.4%
COC(=O)c1c(C(=O)OC)c(-c2ccc(F)cc2)n2c1CS(=O)C2 (stereo not drawn)	/	4%	5%	/	-1%	-1%	/	/
COc1ccccc1CCNC(=O)CCc1c(C)c2cc3c(C)c(C)oc3cc2oc1=O	11%	/	7%	-3%[46.1 µM]	/	/	11%[46.1 µM]	-0.4%
CCOc1ccccc1/C=N/NC(=O)c1cccc(S(=O)(=O)N2CCOCC2)c1	/	/	-7%	12%[46.1 µM]	0%	-8%	2%[46.1 µM]	/
COC(=O)c1ccc2c(c1)NC(=O)C(N1CCCCC1)S2 (stereo not drawn)	5%	-37%	0%	-11%	3%	10%	17%	0.0%
CCOC(=O)c1cc(-c2csc(Nc3ccccc3Cl)n2)on1	/	-2%	0%	5%	-1%	-11%	0%	/
Cc1ccc(C23CC4CC(CC(NC(=O)NC(C)(C)CO)(C4)C2)C3)cc1	?	3%	-20%	-18%	-7%	-4%[3.69 µM]	-28%	-1.6%
COc1cc(/C=C2\SC(=S)N(CCC(=O)NC3CCCC3)C2=O)cc(OC)c1OC	/	-12%	?	4%[46.1 µM]	1%	2%	/	/
CCOC(=O)c1cc2ccc(OC)cc2oc1=O	-8%	-14%	61%[activator]	27%	1%	?	4%	-20%
COC(=O)C1(C)NC(c2ccccc2C)C2C(=O)N(c3ccccc3)C(=O)C21 (stereo not drawn)	/	1%	-3%	/	6%	-15%	/	/
CCCC(c1nnnn1C1CCCCC1)N1CCN(c2ncccn2)CC1 (stereo not drawn)	27%	-51%	4%	-12%	-2%	-2%	-7%	-5.3%
COC(=O)/C(=C\Nc1ccc(Cl)cc1Cl)NC(=O)c1ccccc1	10%	-15%	-12%	16%	/	-18%	9%	-2.8%
CCOC(=O)C1CCN(S(=O)(=O)c2ccc3c(c2)NC(=O)CS3)CC1	/	-5%	-12%	-2%[46.1 µM]	0%	1%	?	/
Cn1nc(C(=O)Nc2ccc(S(=O)(=O)NCc3ccco3)cc2)c2ccccc2c1=O	/	-2%	31%[activator]	/	1%	1%	/	/
O=C(CSC(=S)N1CCCC1)NCC(=O)Nc1ccccc1Br	/	/	-2%	5%	2%	6%	-4%	/
O=C(CSc1ccc(Cl)cc1)NC1CCCC1	2%	-9%	49%[activator]	19%	13%	-3%	4%	5.3%
Oc1ccc(N2CCN(CC(O)c3ccccc3)CC2)cc1 (stereo not drawn)	/	10%	8%	-8%[46.1 µM]	1%	6%	10%[46.1 µM]	/
O=C(Nc1cc(C(F)(F)F)ccc1N1CCOCC1)c1cccs1	4%	4%	-27%	?	0%	0%	-9%	-1.3%
COc1cc(C)ccc1NC(=O)c1ccc(S(=O)(=O)N2CCOCC2)cc1	1%	-8%	-2%	13%	-4%	10%	19%	4.5%
COc1ccc2[nH]c(=S)[nH]c2c1	0%	?	-6%	18%[46.1 µM]	-4%	14%	0%	6.1%
Cc1ccc(Nc2nc(-c3cccnc3)cs2)cc1C	/	-6%	-2%	/	-5%	0%	/	/
CCOc1cccc(-c2cc(=O)[nH][nH]2)c1	8%	30%	-7%	11%	17%	4%	2%	-0.7%
O=C1OC(c2ccc([N+](=O)[O-])cc2)=N/C1=C/N1CC2CC(C1)c1cccc(=O)n1C2 (stereo not drawn)	/	-33%	-19%	/	-1%	-5%	/	/
Cc1ccc2c(c1)cc1c(=O)n(Cc3ccc(Cl)cc3)nc(C)n12	-2%	/	-9%	?	/	/	-4%[46.1 µM]	-0.9%
CCCC1CCC(=NNC(=S)NCCc2ccccc2)CC1 (stereo not drawn)	/	-3%	2%	-2%[46.1 µM]	3%	-9%	10µM*	/
CC(C)c1nnc(NC(=O)c2sc3ccccc3c2Cl)s1	-4%	-101%	28%	-27%	-15%	?	5%	-5.7%
COc1ccc(S(N)(=O)=O)cc1C(=O)NCCCN1CCN(c2cccc(Cl)c2)CC1	4%	8%	-17%	-14%	1%	3%	?	4.0%
COc1ccc(/C=C2/SC(=O)N(CCC(=O)Nc3ccccc3)C2=O)cc1OC	?	-10%	-27%	-1%	8%	-3%	/	-2.5%
C=CCNC(=O)c1cc(=O)c2ccccc2o1	-16%	-2%	/	-1%	-2%	8%	8%	5.5%
COc1ccc(-n2nc(C(=O)N(C)C3CCCCC3)c3ccccc3c2=O)c(OC)c1	/	-8%	17%	/	13%	12%	/	/
CCOc1ccccc1NC(=O)CSc1nnc(C2CC2)n1CC	/	3%	15%	-8%[46.1 µM]	0%	-1%	-3%[46.1 µM]	/
O=C(COC(=O)CNC(=O)c1ccccc1)NCCCc1ccccc1	/	/	-5%	1%[46.1 µM]	4%	-6%	-3%[46.1 µM]	/
COc1ccc(OC)c(NC(=O)COC(=O)C2CCN(C(=O)c3ccc(Cl)cc3)CC2)c1	/	/	7%	19%[46.1 µM]	3%	7%	-1%	/
Cc1ccc2nc(NCc3ccccc3)c(C=NCc3ccccc3)c(=O)n2c1	28%	-18%	5%	6%	-4%	0%	-2%	-6.2%
CCOC(=O)C1CCN(C(=O)c2ccc(OC)cc2OC)CC1	-28%	-3%	8%	14%	3%	-10%	-16%	2.3%
O=C(O)CCCN1C(=O)/C(=C\C(Cl)=C\c2ccccc2)SC1=S	/	-5%	?	/	-2%	10%	/	/
CC(C)CC1NC(=O)N(CC(=O)Nc2cc([N+](=O)[O-])ccc2F)C1=O (stereo not drawn)	/	/	-21%	4%	2%	2%	?	/
COCc1c(C(=O)OCc2nnc(-c3ccc([N+](=O)[O-])cc3)o2)oc2ccccc12	/	/	-7%	10%	-4%	-21%	4%[46.1 µM]	/
COCc1ccc(C(=O)N2CCCC(C(=O)c3cccc(C(F)(F)F)c3)C2)o1 (stereo not drawn)	/	-1%	-7%	/	1%	-20%	/	/
COc1cccc(-c2nnc3n(Cc4ccc(C)cc4)c(=O)c4ccccc4n23)c1O	-4%	/	-22%	27%[46.1 µM]	/	/	-2%[46.1 µM]	-1.5%
COc1ccc(NC(=O)CSc2n[nH]c(=O)n2Cc2ccccc2)cc1Cl	/	-10%	?	?	1%	11%	-17%	/
O=C1C(c2ccc(F)cc2)N(CCc2ccccc2)C(=O)CN1C1CCCCCC1 (stereo not drawn)	-14%	/	9%	/	/	/	?	0.1%
COc1cc(C(C(=O)NC2CCCCC2)N(C(=O)Cc2c[nH]c3ccccc23)c2ccc(C)cc2)cc(OC)c1OC (stereo not drawn)	?	11µM*	-2%	?	-6%	-2%	?	-7.5%
CCc1ccc(NC(=O)c2cnn3c(C(F)F)cc(C)nc23)cc1	/	-2%	-13%	2%&2%[46.1 µM]	-2%	-6%	3%[46.1 µM]	/

This is a random part of the collection; 4.6% or so of the library scored in one or more.
